TRPML1 agonist: qHTS for Agonists of the Human Mucolipin Transient Receptor Potential 1 (TRPML1); Mucolipin-1 (Homo sapiens), Q9GZU1; TRPML1-expressing cells, Ca2+ dye fluorescence, FDSS; host cell line not named in the record; reference of the full effect not given here; activation, % (no concentration beside the values); 0.12% of 410,000 active; in the data active = activation above about 50%; inconclusive = about 30% to 50%; inactive = below about 30%; note: 0% is about no effect; the text of the record puts the active cut at 80%
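Tet-induced TRPML1-DL cells, 1,500 per well, cultured overnight, were loaded with a no-wash Ca2+ dye for 45–90 min. Calcium fluorescence was recorded on the FDSS for 110 s after compound addition, before the EC80 agonist (4 uM 54-4) was added.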
TRPV1 potentiator: HTS Assay for Compounds that Act as Potentiators of the Vanilloid Receptor 1 | TRPV1-expressing cells, Fluo-8 calcium influx, capsaicin EC20 potentiation; host cell line not named in the record; control for the full effect not named in the record | potentiation, % at 8.33 µM | 0.02% of 320,000 active; active means potentiation above 80%; inconclusive means 30% to 80%; inactive means below 30%; note: 0% is about no effect
Target sequence (Q8NER1 whole entry, looked up): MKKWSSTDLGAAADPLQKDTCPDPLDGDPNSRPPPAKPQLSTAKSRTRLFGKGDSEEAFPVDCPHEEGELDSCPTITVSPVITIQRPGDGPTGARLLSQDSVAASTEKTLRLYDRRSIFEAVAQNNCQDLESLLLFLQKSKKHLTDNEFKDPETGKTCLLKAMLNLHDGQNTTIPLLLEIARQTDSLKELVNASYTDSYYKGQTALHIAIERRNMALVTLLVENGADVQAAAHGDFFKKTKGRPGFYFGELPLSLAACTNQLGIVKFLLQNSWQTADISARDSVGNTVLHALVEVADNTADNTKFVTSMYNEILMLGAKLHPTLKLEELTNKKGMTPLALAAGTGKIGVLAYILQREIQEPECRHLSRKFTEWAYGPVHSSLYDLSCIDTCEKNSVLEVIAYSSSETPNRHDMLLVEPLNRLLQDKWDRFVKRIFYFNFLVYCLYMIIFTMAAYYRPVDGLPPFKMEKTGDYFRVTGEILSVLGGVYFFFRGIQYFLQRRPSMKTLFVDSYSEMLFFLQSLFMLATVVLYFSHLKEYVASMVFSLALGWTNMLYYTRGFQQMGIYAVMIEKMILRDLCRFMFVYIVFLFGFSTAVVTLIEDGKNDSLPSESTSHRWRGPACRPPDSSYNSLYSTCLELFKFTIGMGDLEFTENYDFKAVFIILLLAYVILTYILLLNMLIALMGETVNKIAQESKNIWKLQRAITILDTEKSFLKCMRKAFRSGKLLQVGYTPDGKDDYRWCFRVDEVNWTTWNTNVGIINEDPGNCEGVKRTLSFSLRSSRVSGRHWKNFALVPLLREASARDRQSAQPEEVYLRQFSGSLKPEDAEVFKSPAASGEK
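TRPV1-expressing cells were cultured overnight at 35.5C and loaded with Fluo-8 calcium dye for 40 to 90 min at room temperature. After a 10 s baseline, compound was added and calcium influx was read kinetically for 3 min (ex 480/em 520 nm).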
CtBP-E1A blk: qHTS Assay for Inhibitors of the CtBP/E1A Interaction | CtBP / adenovirus E1A interaction (AlphaScreen) | AlphaScreen GST-E1A/His-CtBP binding, 1536-well; active compounds read low; control for the full effect not named in the record | AID 651724, 2012 | activity change, % (concentration not given with the values) | 0.49% of 340,000 active; in the data active means activity change below about -65%; inconclusive means about -30% to -65%; inactive means above about -30%; note: % is set by controls: 0 for no effect and ±100 for the full control effect
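GST-E1A and His-tagged CtBP (125 nM each as 5X stock) were preincubated with pin-transferred compound for 2 h at 37 °C in the dark, then glutathione donor and nickel acceptor beads were added for 1 h before AlphaScreen reading.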
Six1-Eya2 blk: qHTS Assay for Inhibitors of the Six1/Eya2 Interaction. 0.56% of 360,000 active. AlphaScreen GST-Six1/His-Eya2 binding, biochemical; active compounds read low; control for the full effect not named in the record. activity change, % (concentration not given with the values); in the data active = activity change below about -65%; inconclusive = about -30% to -65%; inactive = above about -30%; note: % is set by controls: 0 for no effect and ±100 for the full control effect
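Homogeneous AlphaScreen proximity assay pairing GST-Six1 with His-tagged Eya2 (added as 5X mix: 250 nM and 500 nM) in 50 mM Tris pH 8.0, 300 mM NaCl, 1 mM TCEP. Glutathione donor and nickel acceptor beads; 1 h, 37 °C, dark.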
D2 PAM: Beta-Arrestin HTS for Positive Allosteric Modulators of the Human D2 Dopamine Receptor: Potentiators | AID 624464, 2012 | DiscoveRx D2 beta-arrestin cells, luminescence, 90 min; 100% = 57 uM dopamine signal | 0.23% of 360,000 active | potentiation, % (no concentration beside the values) | D(2) dopamine receptor (Homo sapiens), P14416; active = potentiation of 50% or more; inconclusive = 30% to 50%; inactive = 30% or less;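 note: compound concentration not given in the record; tested on top of an EC20 dose of dopamine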
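D2 cells co-treated with compound plus 50 nM dopamine (EC20) for 90 min at 37 deg C to detect potentiation. Beta-arrestin recruitment was read as enzyme-fragment luminescence after 1 h at ambient temperature. Full response was set by 57 uM dopamine.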
TRPML1 blocker: qHTS for Inhibitors of the Human Mucolipin Transient Receptor Potential 1 (TRPML1); Mucolipin-1 (Homo sapiens), Q9GZU1; TRPML1-inducible cells, Ca2+ dye fluorescence, FDSS; active compounds read low; inhibition of EC80 agonist-evoked calcium signal; activity change, negative = inhibition, % (test concentration not listed); 0.02% of 390,000 active; AID 624415, 2012; in the data active means activity change below about -50%; inconclusive means about -30% to -50%; inactive means above about -30%;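 note: stimulus is agonist 54-4 at its EC80 concentration; % is set by controls: 0 for no effect and ±100 for the full control effect; compound concentration not given in the record; the text of the record puts the active cut at -80%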
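Tet-induced TRPML1-DL cells loaded with Ca8 no-wash calcium dye were read kinetically on FDSS. Compound addition was followed by EC80 agonist 54-4 (4 uM final); inhibition was read over 110 s.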
* hit, by the source's call; ? = inconclusive; / = not tested or not shown; & = joins results of further samples.

1: CCCOc1ccc(F)cc1-c1cc(C(=O)NC(C)C)[nH]n1
2: Cn1c(=O)n(C)c2cc([N+](=O)[O-])c(N3CCN(C(=O)C(C)(C)C)CC3)cc21
3: O=S(=O)(c1cccc2nsnc12)N1CCN(Cc2ccccc2)CC1
4: N#Cc1c2ccc(OCC(N)=O)cc2n2ccccc12
5: CCOC(=O)N1CCN(S(=O)(=O)N2CCCC(C(=O)NCCCN3CCC(C)CC3)C2)CC1 (configuration not stated)
6: COc1cccc(/C=N/NC(=O)CN2C(=O)NC3NC(=O)NC32)c1 (configuration not stated)

compound no.	1	2	3	4	5	6
TRPML1 agonist	-1.2	-0.2	-1.0	1.5	-0.5	-0.5
TRPV1 potentiator	/	-1	-2	-2	3	0
CtBP-E1A blk	0	-25	-4	-28	3	1
Six1-Eya2 blk	0	-16	-7	?	-2	-2
D2 PAM	-6	-6	-3	5	-19	7
TRPML1 blocker	/	-27	-10	47	-8	16

7: Cc1cccc(NC(=S)N2CCN(Cc3ccc4c(c3)OCO4)CC2)c1C
8: CC(C)(C)c1ccc(-c2nc3cc(N)ccc3o2)cc1
9: COc1cccc(CNc2ncc(C(=O)Nc3cc(OC)c(OC)c(OC)c3)c(C)n2)c1
10: CC(C)(C)c1nc(SCC(=O)N2CCCC2)c2ccccc2n1
11: C[C@@H](C(=O)N=c1sc2ccccc2n1C)N1C(=O)C2CC=CCC2C1=O (some centres not stated)
12: Cn1c2ccccc2c2cc(C(=O)NNC(=O)CCl)sc21

compound no.	7	8	9	10	11	12
TRPML1 agonist	-0.9	0.1	2.0	-0.1	1.5	-0.5
TRPV1 potentiator	0	4	2	4	/	2
CtBP-E1A blk	-14	-5	8	-17	2	10
Six1-Eya2 blk	-7	5	1	4	7	-1
D2 PAM	-17	-5	0	1	-2	0
TRPML1 blocker	7	-4	-21	12	46	16

13: CCOC(=O)Cc1csc(/C(=N/O)C(N)=O)n1
14: C/C(=N\NC(=O)c1cc(C)nc2ccccc12)c1cccc(Cl)c1
15: CC(C)C(=O)Nc1ccc(C(=O)NCc2cccnc2)cc1
16: CN(C(=O)C1CCCN(c2ncnc3c2nc2n3CCCCC2)C1)c1cccc(Cl)c1 (configuration not stated)
17: CSCCCN1CCCC(CO)(Cc2ccccc2F)C1 (configuration not stated)
18: O=C(CN1CCN(S(=O)(=O)c2ccccc2)CC1)NC(=O)NCc1ccco1

compound no.	13	14	15	16	17	18
TRPML1 agonist	0.2	1.9	0.7	-1.1	0.3	-0.1
TRPV1 potentiator	8	19	8	6	4	9
CtBP-E1A blk	0	3	-1	-2	/	0
Six1-Eya2 blk	?	5	4	-6	16	1
D2 PAM	3	8	15	5	-60	1
TRPML1 blocker	-12	16	-4	9	-4	11

19: Cc1cc(=O)[nH]c(SCC(=O)Nc2ccc(S(=O)(=O)N3CCCCC3)cc2)n1
20: O=C(c1cccnc1)N(c1cc2sc(=O)oc2c2ccccc12)S(=O)(=O)c1ccccc1
21: O=C(CSC1=NCCS1)N1CCN(c2ccc(Cl)cc2)CC1
22: CCCCNC(=O)COC(=O)c1ccc(SC)cc1OC
23: O=C(COC(=O)Cc1cccc(C(F)(F)F)c1)NC1CC1
24: CCCC1NC(C(=O)O)Cc2c1[nH]c1ccccc21 (configuration not stated)

compound no.	19	20	21	22	23	24
TRPML1 agonist	-0.4	0.1	0.5	0.4	4.2	1.8
TRPV1 potentiator	1	4	-14	-3	-7	-6
CtBP-E1A blk	-11	?	2	4	11	-1
Six1-Eya2 blk	-14	?	-5	-7	3	1
D2 PAM	-10	62*	-12	-5	0	-4
TRPML1 blocker	-13	12	-1	3	1	0

25: CC1CCCCC1NC(=O)C1CC=CCC1C(=O)O (configuration not stated)
26: CCOC(=O)N1CCC(NC(=O)CNS(=O)(=O)c2ccc(Br)s2)CC1
27: CC1CCN(CC(=O)Nc2ccc(N3CCCCCC3)cc2)CC1
28: O=C(NCc1cccnc1)Nc1cccc([N+](=O)[O-])c1
29: Cc1ccsc1C(=O)OCC(=O)NC1CCCCC1
30: O=C(Nc1cccc(OC(F)(F)F)c1)C1Cc2c(-c3ccc(Cl)cc3)ccnc2O1 (configuration not stated)

compound no.	25	26	27	28	29	30
TRPML1 agonist	-0.6	1.4	0.7	-0.1	-0.2	2.7
TRPV1 potentiator	3	-3	-19	12	/	/
CtBP-E1A blk	-9	5	?	12	0	0
Six1-Eya2 blk	4	-2	?	-3	3	12
D2 PAM	-6	-4	-11	-15	-1	-11
TRPML1 blocker	-5	13	13	-2	-28	/

31: CCn1ncc(/C=N/NC(=O)c2ccc3c(c2)OCO3)c1C
32: COc1ccccc1C(=O)NCCC(=O)NC1CCC(C)CC1 (configuration not stated)
33: COc1ccc(C(CC(=O)O)NS(=O)(=O)c2ccc3c(c2)NC(=O)CO3)cc1 (configuration not stated)
34: Cn1c(CCN2CCCC2)nc2cc(NS(=O)(=O)c3ccccc3)ccc21
35: C[C@H]1CN([C@@H](C)CO)C(=O)c2cc(NC(=O)C3CCCCC3)ccc2O[C@H]1CN(C)C(=O)Nc1ccc2c(c1)OCO2
36: CCOC(=O)N1CCC(N2C(=O)c3ccc(C(=O)NCc4ccc(F)cc4)cc3C2=O)CC1

compound no.	31	32	33	34	35	36
TRPML1 agonist	-0.4	-1.6	-0.2	-0.2	0.5	0.2
TRPV1 potentiator	0	-18	1	-6	/	-31
CtBP-E1A blk	3	/	8	4	-3	0
Six1-Eya2 blk	-1	5	2	-2	-1	-2
D2 PAM	-12	-6	-4	-24	-6	-2
TRPML1 blocker	12	7	3	0	-3	9

Given with values under each structure: entries from further up.
Value order – TRPML1 agonist | TRPV1 potentiator | CtBP-E1A blk | Six1-Eya2 blk | D2 PAM | TRPML1 blocker
(21) O=C(CSC1=NCCS1)N1CCN(c2ccc(Cl)cc2)CC1
    0.5 | -14 | 2 | -5 | -12 | -1
(22) CCCCNC(=O)COC(=O)c1ccc(SC)cc1OC
    0.4 | -3 | 4 | -7 | -5 | 3
(23) O=C(COC(=O)Cc1cccc(C(F)(F)F)c1)NC1CC1
    4.2 | -7 | 11 | 3 | 0 | 1
(24) CCCC1NC(C(=O)O)Cc2c1[nH]c1ccccc21 (configuration not stated)
    1.8 | -6 | -1 | 1 | -4 | 0
(25) CC1CCCCC1NC(=O)C1CC=CCC1C(=O)O (configuration not stated)
    -0.6 | 3 | -9 | 4 | -6 | -5
(26) CCOC(=O)N1CCC(NC(=O)CNS(=O)(=O)c2ccc(Br)s2)CC1
    1.4 | -3 | 5 | -2 | -4 | 13
(27) CC1CCN(CC(=O)Nc2ccc(N3CCCCCC3)cc2)CC1
    0.7 | -19 | ? | ? | -11 | 13
(28) O=C(NCc1cccnc1)Nc1cccc([N+](=O)[O-])c1
    -0.1 | 12 | 12 | -3 | -15 | -2
(29) Cc1ccsc1C(=O)OCC(=O)NC1CCCCC1
    -0.2 | / | 0 | 3 | -1 | -28
(30) O=C(Nc1cccc(OC(F)(F)F)c1)C1Cc2c(-c3ccc(Cl)cc3)ccnc2O1 (configuration not stated)
    2.7 | / | 0 | 12 | -11 | /
(31) CCn1ncc(/C=N/NC(=O)c2ccc3c(c2)OCO3)c1C
    -0.4 | 0 | 3 | -1 | -12 | 12
(32) COc1ccccc1C(=O)NCCC(=O)NC1CCC(C)CC1 (configuration not stated)
    -1.6 | -18 | / | 5 | -6 | 7
(33) COc1ccc(C(CC(=O)O)NS(=O)(=O)c2ccc3c(c2)NC(=O)CO3)cc1 (configuration not stated)
    -0.2 | 1 | 8 | 2 | -4 | 3

Continuation:
37: O=C(NCc1ccccc1)NC(=O)c1ccc(Cl)cc1
38: CCOc1ccc(Oc2ccccc2NC(=O)C2=COCCO2)cc1
39: CC(=O)Nc1ccc(Nc2nccc(C)n2)cc1
40: Cc1cc(N2C(=O)CC(C(C)c3ccccc3)C2=O)no1 (configuration not stated)
41: COC(=O)c1cc(S(=O)(=O)N(Cc2ccccc2)C(C)(C)C)c[nH]1
42: CC(C)CCNC(=O)C1CCN(S(=O)(=O)c2ccc3nc4c(c(C(=O)O)c3c2)CCCCC4)CC1

compound no.	37	38	39	40	41	42
TRPML1 agonist	1.1	1.8	-0.4	0.0	-0.4	-0.4
TRPV1 potentiator	/	-4	/	3	-13	-3
CtBP-E1A blk	-3	0	5	2	-10	0
Six1-Eya2 blk	9	-1	11	-8	-11	5
D2 PAM	-14	-14	-2	-14	-5	1
TRPML1 blocker	14	15	/	-3	-2	12

43: CCN1CCN(S(=O)(=O)c2c(C)cc(C)cc2C)CC1
44: O=S(=O)(NCCc1ccccc1)c1ccc(S(=O)(=O)N2CCCCC2)cc1
45: CCOC(=O)c1cn(CC(=O)Nc2cccc(Cl)c2C)nn1
46: CCCn1c(SCC(=O)c2ccc3c(c2)OCCO3)nnc1-c1ccco1
47: CCN(CC)S(=O)(=O)c1ccc(Cl)c(NC(=O)COc2ccc3c(C)cc(=O)oc3c2)c1
48: Cc1cccc(C)c1OC(=O)C(c1ccccc1)c1ccccc1

compound no.	43	44	45	46	47	48
TRPML1 agonist	0.6	0.0	-0.6&-0.4	1.6	-0.2	-0.1
TRPV1 potentiator	-2	-10	/	12	17	-7
CtBP-E1A blk	-6	12	4	2	0	12
Six1-Eya2 blk	4	5	8	-5	10	32
D2 PAM	-1	-10	-3	-14	-1	1
TRPML1 blocker	0	10	8&-5	-10	-1	-21

49: COc1ccc(N2CCN(C(=O)Cn3nnc(-c4ccc(N(C)C)cc4)n3)CC2)cc1
50: O=C(CCN1C(=O)/C(=C/c2ccccc2F)SC1=S)NCCCn1ccnc1
51: CCOc1ccc(CNc2ccc(N3CCCC3)cc2)cc1
52: Nc1c(-c2ccccc2)c(CN2CCOCC2)nn1-c1cccc([N+](=O)[O-])c1
53: COC(=O)C1=C(N)OC2=C(C(=O)CC(C)(C)C2)C1c1cccs1 (configuration not stated)
54: Cc1c(-c2ccccc2)[nH]n2c(=O)c3c(nc12)CCCC3
55: COc1ccc(C(CNC(=O)c2ccc(OCc3cscn3)cc2)N2CCCC2)cc1 (configuration not stated)

compound no.	49	50	51	52	53	54	55
TRPML1 agonist	-0.3	0.5	-0.5	-0.7	-0.9	2.0	-0.4
TRPV1 potentiator	4	-8	17	-13	22	3	/
CtBP-E1A blk	-2	/	?	4	1	-14	1
Six1-Eya2 blk	-4	-13	?	-2	2	?	-3
D2 PAM	-7	-5	3	0	0	-24	-25
TRPML1 blocker	5	26	-3	8	-8	-9	16
